# Measles inh – inhibitors of measles virus growth in cells, primary screen, measles RdRp inhibitor project, cell-based, single point, HTS; infected Vero cells, GFP fluorescence, 64 h; active compounds read low; 0.1% of 33,000 active; z-score (concentration not given with the values);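 active means z-score under -3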;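 further: score is relative to mean and SD of the compound wells of a plate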
# Starred values were filed as active, the others as inactive. An excerpt. The share of hits here may be higher or lower than overall.
SMILES,Measles inh
O=C(CN1C(=O)c2ccccc2C1=O)Nc1ccc(Br)c(C(=O)c2ccccc2Cl)c1,-0.14
CC12CC(NC(=O)N1c1cccc(C(=O)NC3CCCC3)c1)c1ccccc1O2 (configuration not stated),0.21
CCOc1cc(C2Nc3cccc4cccc(c34)N2)ccc1O,-0.05
CCSc1nnc2c(n1)OC(C)N(C(C)=O)c1ccccc1-2 (configuration not stated),0.25
CCN(CC)c1ccc(NC(=O)c2c(-c3ccccc3)noc2C)cc1,-0.09
O=C(CSc1ncnc2sc3c(c12)CCCC3)c1ccccc1,-0.18
O=[N+]([O-])c1cc(S(=O)(=O)C(Cl)(Cl)Br)ccc1NC1CCCCC1,-1.43
CCOc1ccc(S(=O)(=O)Nc2ccc(OC)cc2)cc1,-0.18
CC(=O)Nc1ccc(NC(=O)CSc2nc3ccccc3s2)cc1,-1.2
CCC(=O)N1c2ccc(S(=O)(=O)CCC(=O)Nc3ccc(C(F)(F)F)cc3)cc2CC1C (configuration not stated),-2.8
CCOC(=O)c1cnc2c(C)cc(Cl)cc2c1NCCN(C)C,-0.15
CCOC(=O)C1=C(C(=O)OCC)SC(=C2C(=S)C(C)(C)N(C(=O)CC(C)C)c3ccccc32)S1,-0.29
O=C(C1CCCCC1)N1CCN(c2ccccn2)CC1,-0.91
ICC1CSc2nncn21 (configuration not stated),-0.29
O=C(Nc1ncc(Cc2cccc([N+](=O)[O-])c2)s1)c1ccco1,0.57
C=CCNc1nc(C)nc2c1sc1nc3c(cc12)COC(C)(C)C3,-0.93
Cc1ccc(C(=O)Nc2cccc(C(=O)O)c2)cc1S(=O)(=O)Nc1ccc(Br)cc1,0.1
Cc1c(Sc2nc3ccccc3s2)c(=O)[nH]c2cc3c(cc12)OCO3,-0.71
O=C(NCC1CCCO1)c1ccc2c(=O)n(Cc3cccc(Br)c3)c(=S)[nH]c2c1 (configuration not stated),0.85
N#Cc1c(N2CCCCCC2)ncc2cc3ccccc3nc12,6.68
O=C(Nc1cc([N+](=O)[O-])ccc1Cl)c1cnc2n(c1=O)CCS2,-0.07
CCC(CC)c1nc(Nc2ccccc2)c2ccccc2n1,-0.54
O=C1c2ccccc2C(=O)N1c1ccc(NC(=O)C23CC4CC(CC(C4)C2)C3)cc1,-0.85
O=C(OCc1ccco1)c1cccnc1,-1.35
COc1ccc(-n2nc(C(=O)N3CCOCC3)c3ccccc3c2=O)cc1,-0.43
COc1ccc(S(=O)(=O)N(c2cccc(C)n2)S(=O)(=O)c2ccc(OC)cc2)cc1,0.85
O=C(c1ccc2c(c1)N(Cc1ccccc1Cl)C(=O)CS2)N1CCCC1,1
Cc1cc(N2C(=O)C3C4CCC(C4)C3C2=O)ccc1N1C(=O)c2ccc(Cl)cc2C1=O (configuration not stated),-0.77
CCc1ccc(NC(=O)c2ccc(F)c(S(=O)(=O)N(CC)c3ccccc3)c2)cc1,-0.91
CCOC(=O)c1ccc(NC(=O)C2CC(=O)N(C)C(=Nc3ccc(C)c(C)c3)S2)cc1 (configuration not stated),-2.37

# A second format for some results above:
Measles inh	mol
0.57	O=C(Nc1ncc(Cc2cccc([N+](=O)[O-])c2)s1)c1ccco1
-0.93	C=CCNc1nc(C)nc2c1sc1nc3c(cc12)COC(C)(C)C3
0.1	Cc1ccc(C(=O)Nc2cccc(C(=O)O)c2)cc1S(=O)(=O)Nc1ccc(Br)cc1
-0.71	Cc1c(Sc2nc3ccccc3s2)c(=O)[nH]c2cc3c(cc12)OCO3
0.85	O=C(NCC1CCCO1)c1ccc2c(=O)n(Cc3cccc(Br)c3)c(=S)[nH]c2c1 (configuration not stated)
6.68	N#Cc1c(N2CCCCCC2)ncc2cc3ccccc3nc12
-0.07	O=C(Nc1cc([N+](=O)[O-])ccc1Cl)c1cnc2n(c1=O)CCS2
-0.54	CCC(CC)c1nc(Nc2ccccc2)c2ccccc2n1
-0.85	O=C1c2ccccc2C(=O)N1c1ccc(NC(=O)C23CC4CC(CC(C4)C2)C3)cc1
-1.35	O=C(OCc1ccco1)c1cccnc1
-0.43	COc1ccc(-n2nc(C(=O)N3CCOCC3)c3ccccc3c2=O)cc1
0.85	COc1ccc(S(=O)(=O)N(c2cccc(C)n2)S(=O)(=O)c2ccc(OC)cc2)cc1
1	O=C(c1ccc2c(c1)N(Cc1ccccc1Cl)C(=O)CS2)N1CCCC1
-0.77	Cc1cc(N2C(=O)C3C4CCC(C4)C3C2=O)ccc1N1C(=O)c2ccc(Cl)cc2C1=O (configuration not stated)
-0.91	CCc1ccc(NC(=O)c2ccc(F)c(S(=O)(=O)N(CC)c3ccccc3)c2)cc1

# (next part)
SMILES,Measles inh
CCOC(=O)C(=O)NCCc1ccc(OC)c(OC)c1,0.28
COc1ccc(Br)cc1CNC(=O)CCCc1cn(C)c2ccccc12,1.18
CCOc1ccc(C(=O)Oc2cccc3cccnc23)cc1Br,-3.48*
COC(=O)C1=C(C)NC2=C(C(=O)CCC2)C1c1ccc(Br)cc1 (configuration not stated),-1.36
O=C(c1ccccc1F)N1c2ccccc2CCc2ccccc21,0.55
COc1ccc(C(NC(=O)CN2CC(=O)Nc3ccccc32)C(=O)Nc2c(C)cccc2C)cc1 (configuration not stated),-1.39
CCOc1cc(C2C3=C(CC(C)(C)CC3=O)OC3=C2C(=O)CC(C)(C)C3)cc(Cl)c1O,0.42
COCCCNC(=O)CCCn1c(=O)[nH]c2ccc(Br)cc2c1=O,-0.19
O=C(Nc1ccc(-c2nc3ccccc3s2)c(O)c1)c1cccc(Cl)c1,-0.06
CC(C)c1ccc(-c2csc(NC(=O)C3C4CCC(O4)C3C(=O)O)n2)cc1 (configuration not stated),-0.11
CCOC(=O)c1cnc2ccc(C)cc2c1N(C)Cc1ccccc1,-0.11
CCOC(=O)c1c(-c2ccccc2)oc2ccc(NS(=O)(=O)c3cc([N+](=O)[O-])ccc3Cl)cc12,-0.11
O=C(c1cccc(Oc2c(Cl)cccc2[N+](=O)[O-])c1)N1CCOCC1,0.09
COc1ccc(-c2cn3c(C)c(C(N)=O)sc3n2)cc1,-1.37
CCN1C(=O)CC(C(=O)Nc2ccc(C(=O)O)cc2)SC1=Nc1ccc(C(=O)OC)cc1 (configuration not stated),-0.65
CCOc1ccccc1NC(=O)c1cc(-c2ccc(Cl)s2)nc2ccccc12,-0.67
COc1ccc(-c2c(C)n([O-])c3c([n+]2=O)CCCC3)cc1OC,0.79
CCN1CCCC1CNS(=O)(=O)c1cc(Br)cc2c1N(C(C)=O)CC2 (configuration not stated),-0.2
O=C(Cn1ccc2ccccc2c1=O)NCC(=O)Nc1nc2ccccc2s1,2.05
CC12COC3(C(=O)Nc4cccc(Cl)c4)CC1CCC32C (configuration not stated),0.45
O=C(C1CCC1)N1CCc2cc(S(=O)(=O)NCCC3=CCCCC3)ccc21,0.12
CC(=O)N(c1ccc(C)cc1Br)S(=O)(=O)c1ccc2ccccc2c1,-2.35
O=C1CC(C(=O)Nc2ccc(Cl)cc2)SC(=Nc2ccccc2)N1 (configuration not stated),-0.61
c1ccc(-c2nc3ccccn3c2Nc2ccc3c(c2)OCO3)cc1,-0.89
CN(CC(=O)Nc1cccc2c1CCCC2)S(=O)(=O)c1cccs1,-0.45
CC1CCCCC1NC(=O)C1CCCN(c2nc3ccccc3o2)C1 (configuration not stated),-1.49
CCOC(=O)c1ccc(N2C(=O)CC(SCC(=O)Nc3ccc4ccccc4c3)C2=O)cc1 (configuration not stated),0.84
O=C1SC(Nc2ccccc2Cl)C(=O)N1c1ccccc1 (configuration not stated),-0.52
CC(C)(C)c1ccc(C(=O)Nc2ccc3c(c2)Cc2ccccc2-3)cc1,-0.05
C=CCNc1nc(CC(=O)OCC)cs1,2.73
COc1ccc(OC)c(S(=O)(=O)Nc2cc(C(=O)O)ccc2N2CC3CC(C2)c2cccc(=O)n2C3)c1 (configuration not stated),-1.72
COc1ccc(S(=O)(=O)N2CCN(C(=O)c3ccccc3[N+](=O)[O-])CC2)cc1,0.78
CC1CCN(C(=S)Oc2ccc(C(=O)Nc3cccc([N+](=O)[O-])c3)cc2)CC1,-0.75
NC(=O)c1ccc(N=c2oc3ccc(Br)cc3cc2C(N)=O)cc1,-0.22
Cc1ccsc1CN1CC(=O)N(c2cccc(Cl)c2C)C1=S,2.51
Cc1sc2ncn(CC(=O)Nc3nc4ccccc4s3)c(=O)c2c1S(=O)(=O)N1CCCCC1,-0.12
O=C(CSc1nc2ccc(Br)cc2[nH]1)NC1CCCCC1,-0.02
CC1CCN(S(=O)(=O)N2CCCC(C(=O)NCc3ccc(F)cc3)C2)CC1 (configuration not stated),-1.85
CCCNC(=O)c1cnn2c(C)c(Cc3cccc(Cl)c3)c(C)nc12,-1.9
O=[N+]([O-])c1ccc(N2CCN(S(=O)(=O)c3ccc4ccccc4c3)CC2)cc1NCc1ccc(Cl)cc1,-1.08

# Look-ups from above:
# In Measles inh, COc1ccc(S(=O)(=O)N2CCN(C(=O)c3ccccc3[N+](=O)[O-])CC2)cc1 has 0.78
# In Measles inh, Cc1sc2ncn(CC(=O)Nc3nc4ccccc4s3)c(=O)c2c1S(=O)(=O)N1CCCCC1 has -0.12

# Remaining list, next part:
SMILES,Measles inh
O=C(O)c1cccc(Nc2nc(-c3ccccc3)c3ccccc3n2)c1,-0.47
O=c1c(-c2ccc3ccccc3n2)cc2ccccc2n1Cc1ccccc1,0.6
CCC(=O)N1c2ccccc2-c2nnc(SC)nc2OC1c1ccc(F)cc1 (configuration not stated),-1.5
COC(=O)c1ccc2c(=O)n(Cc3ccc(C(=O)NC4CCCCC4C)cc3)c(=S)[nH]c2c1 (configuration not stated),-0.65
CC(NC(=O)C1c2ccccc2Oc2ccccc21)C12CC3CC(CC(C3)C1)C2 (configuration not stated),0.22
Cn1c(CNc2ccccc2[N+](=O)[O-])c(C#N)c2ccccc21,0.62
O=C(c1ccc([N+](=O)[O-])cc1)N1CCCc2ccccc21,0.19
O=C1CN(C(=O)CCC2CCCC2)C(c2ccccc2)c2cc(Cl)ccc2N1 (configuration not stated),-0.23
O=C(O)c1ccc(NC(=O)c2cn(-c3ccccc3)nc2-c2ccc(Cl)cc2)cc1,-0.72
COCCn1c(=S)[nH]c2ncccc2c1=O,-1.55
CCOc1cccc(C(=O)Nc2ccc(NC(=O)c3ccc(C(C)(C)C)cc3)cc2)c1,1.19
CN(C)CCCOC(=O)c1cc2ccccc2o1,3
Cc1ccccc1-n1nc2c(c1NC(=O)Cc1ccc(F)cc1)CS(=O)C2 (configuration not stated),0.34
CCOc1cccc2c1OC1(C)CC2NC(=O)N1c1ccc(F)cc1 (configuration not stated),0.59
O=C(Cn1c(=O)n(-c2cccc(C(F)(F)F)c2)c(=O)c2sccc21)NC1CCCCC1,0.1
CC(C)C(=O)NC(c1ccc(N(C)C)cc1)c1ccc2cccnc2c1O (configuration not stated),-0.14
CSC1=NC(=Cc2cc(Br)ccc2OCC(=O)O)C(=O)S1,0.58
COc1ccc(NC(=O)C(NC(=O)Cc2cccs2)c2ccc(C)cc2)cc1 (configuration not stated),-0.31
CCN1CCN(c2cc(C)c3cc(NC(=O)CCC4CCCC4)ccc3n2)CC1,-0.38
CCOC(=O)c1ccc(NS(=O)(=O)c2ccc3c(c2)OCCO3)cc1,-0.95
CCOCCCn1c(=N)c(C(=O)NC2CCCCC2)cc2c(=O)n3cccc(C)c3nc21,-1.3
CCC(Sc1nc2ccccc2c2nc3ccccc3n12)C(=O)Nc1cccc(OC)c1 (configuration not stated),-1.04
C=CCNc1nc(-c2sc(NC(=O)CC)nc2C)cs1,-0.58
Cc1cccc(-n2nc3c(c2NC(=O)c2ccc4c(c2)OCO4)CS(=O)(=O)C3)c1C,-1.55
O=C(OCc1ccco1)c1cc2ccccc2oc1=O,-0.08
Cc1cc(C)n2nc(N)c(N)c2n1,2.64
CCC(=O)N1CCc2cc(Br)cc(S(=O)(=O)Nc3cccc(F)c3)c21,-0.74
COCCN1C(=O)c2ccccc2C(C(=O)Nc2ccc(C)c(F)c2)C1c1cn(C)c2ccccc12 (configuration not stated),0.28
Cc1nc(Oc2ccc(F)cc2)c(C(=O)NCc2ccccc2)c(C)c1Cl,-0.1
Cc1cc2c(c(C)c1Cl)CN(Cc1ccc(F)cc1)CO2,-0.43
Cc1ccc(Sc2c(C)nn(C(=O)c3cccnc3)c2C)cc1,-0.45
CC1=C(C(=O)Nc2cccc(C)n2)C(c2ccc(Cl)cc2)C2=C(CCCC2=O)N1 (configuration not stated),1.3
Cc1ccc(NC(=O)Cn2c(C(F)(F)F)nc3ccccc32)cc1C,0.25
CN1C(=O)N(c2cccc3ccccc23)C(C)(O)CC1(C)C (configuration not stated),-0.48
O=C1C2CC=CCC2C(=O)N1Cc1ccccc1 (configuration not stated),0.07
CCOC(=O)c1sc(-c2ccc(C)cc2)c(C#N)c1C,-0.59
CC(C)C1NC(=O)N(c2ccc(Br)cc2)OC1=O (configuration not stated),3.42
Cc1ccc(N2C(=O)C(N3C(=O)c4cccc([N+](=O)[O-])c4C3=O)C2c2ccccc2F)cc1Cl (configuration not stated),-0.18
CC1CCN(c2nc3c(c(=O)n(Cc4ccccc4)c(=O)n3C)n2Cc2ccccc2)CC1,-1.03
Cc1cccc(Nc2ncc([N+](=O)[O-])cc2[N+](=O)[O-])c1,0.87
COc1ccccc1N1CCN(C(=O)CCCC(=O)O)CC1,0.43
O=C(CSc1nc2[nH]ncc2c(=O)n1-c1ccccc1)Nc1ccc(Oc2ccccc2)cc1,2.45
COc1ccccc1N1CCN(C(=O)CCc2nc(-c3ccc(C)cc3)no2)CC1,1.44
O=C(Nc1ccccc1Br)c1cc(S(=O)(=O)NCc2ccccc2Cl)ccc1F,1.06
CC(=O)c1ccc2c3c(cccc13)C(=O)N(C)C2=O,-0.47
Cc1ccc(C(=O)N2CCN(S(=O)(=O)c3ccccc3[N+](=O)[O-])C2)cc1,0.35
Cc1ccc(Cl)cc1NC(=O)c1oc2ccc(S(=O)(=O)N3CCCCCC3)cc2c1C,-0.13
Cc1cc(OCC(=O)Nc2ncn[nH]2)ccc1Br,-0.81
Cc1sc2ncnc(SC(C)C(=O)O)c2c1C (configuration not stated),0.54
NC(=O)C1CC(=O)N(Cc2ccc3c(c2)OCO3)C(=Nc2ccccc2)S1 (configuration not stated),2.99
Cc1cc(C)cc(N=c2c([N+](=O)[O-])nn(-c3ccc4c(c3)OCCO4)n2O)c1,-1.52
COCc1cc(=O)[nH]c(SCC(=O)Nc2ccccc2)n1,1
